# gsp antagonist = antagonists of gsp mutant (McCune-Albright syndrome). gsp-mutant cells, cAMP HTRF, 30 min; control for the full effect not named in the record. Potency, µM (top dose mostly 76.9 µM), inactives show top-dose activity change, negative = inhibition, actives largely listed as inhibitors. actives 0.4% (n = 340,000). AID 624288; active = falling curve of any shape with a large fitted effect; inconclusive = falling curve, mostly with a smaller effect; inactive = flat or rising curve; cell line not stated here;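 note: intracellular cAMP measured with PDE inhibitor Ro 20-1724 present during compound exposure; potency is the fitted concentration of half-maximal effect; % is set by controls: 0 for no effect and ±100 for the full control effect; nearly all actives have a fitted effect of over 65% in size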
#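 HTRF cAMP measurement after 30 min RT detection following 30 min, 37C compound treatment alongside […] (added as 300 uM solution) in G418-selected cells seeded at 2000/well and grown 16–24 h.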
# ClpP mod = qHTS Assay for Activators of ClpP; ATP-dependent Clp protease proteolytic subunit (Bacillus subtilis (strain 168)), P80244; purified B. subtilis ClpP, FRET peptide cleavage, 20 min; Potency, µM (top dose mostly 57.5 µM), for inactives: at the top dose activity change, negative = active; actives 1.9% (n = 340,000); AID 651965, 2013; active = well fitted falling curve with a large enough effect; inconclusive = small, poorly fitted or top-dose-only effect; inactive = no such curve, though single readings can be large or run the other way; note: potency is the fitted concentration of half-maximal effect; the source files actives as falling curves though it sought activators and does not explain the sign; nearly all actives have a fitted effect of over 65% in size; many hits overshoot -100%
# Target sequence (P80244 whole entry, looked up): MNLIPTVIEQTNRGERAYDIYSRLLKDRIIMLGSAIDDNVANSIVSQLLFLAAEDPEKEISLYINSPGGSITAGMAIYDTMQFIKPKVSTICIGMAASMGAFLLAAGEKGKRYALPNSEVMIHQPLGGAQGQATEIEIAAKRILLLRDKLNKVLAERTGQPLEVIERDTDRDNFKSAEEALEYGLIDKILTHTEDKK
#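 Buffer: 100 mM Tris/HCl pH8, 100 mM KCl, 0.05% low protease BSA, 2.5% glycerol, 0.01% Tween-20. ClpP 10 microg/mL final; 20 min RT; delta FRET normalized to ADEP and DMSO controls.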
# CtBP-E1A blk = blocks the CtBP interaction with E1A. AlphaScreen GST-E1A/His-CtBP binding, 1536-well; active compounds read low; control for the full effect not named in the record. actives 0.49% (n = 340,000). activity change, % (no concentration beside the values); in the data active means activity change below about -65%; inconclusive means about -30% to -65%; inactive means above about -30%; note: % is set by controls: 0 for no effect and ±100 for the full control effect
#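 Protein mix (5X: 125 nM each GST-E1A, His-CtBP) was incubated with pinned compound 2 h at 37 deg C in dark, in 50 mM Tris pH 8.0 buffer with 300 mM NaCl. Glutathione donor and nickel acceptor beads followed; AlphaScreen signal read after 1 h.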
# TRPV1 PAM = enhances activation of the human vanilloid receptor TRPV1 | Q8NER1 | TRPV1-expressing cells, Fluo-8 calcium influx, capsaicin EC20 potentiation; host cell line not named in the record; control for the full effect not named in the record | potentiation, % at 8.33 µM | actives 0.02% (n = 320,000) | AID 540277; active means potentiation above 80%; inconclusive means 30% to 80%; inactive means below 30%; note: 0% is about no effect
# Target sequence (Q8NER1 whole entry, looked up): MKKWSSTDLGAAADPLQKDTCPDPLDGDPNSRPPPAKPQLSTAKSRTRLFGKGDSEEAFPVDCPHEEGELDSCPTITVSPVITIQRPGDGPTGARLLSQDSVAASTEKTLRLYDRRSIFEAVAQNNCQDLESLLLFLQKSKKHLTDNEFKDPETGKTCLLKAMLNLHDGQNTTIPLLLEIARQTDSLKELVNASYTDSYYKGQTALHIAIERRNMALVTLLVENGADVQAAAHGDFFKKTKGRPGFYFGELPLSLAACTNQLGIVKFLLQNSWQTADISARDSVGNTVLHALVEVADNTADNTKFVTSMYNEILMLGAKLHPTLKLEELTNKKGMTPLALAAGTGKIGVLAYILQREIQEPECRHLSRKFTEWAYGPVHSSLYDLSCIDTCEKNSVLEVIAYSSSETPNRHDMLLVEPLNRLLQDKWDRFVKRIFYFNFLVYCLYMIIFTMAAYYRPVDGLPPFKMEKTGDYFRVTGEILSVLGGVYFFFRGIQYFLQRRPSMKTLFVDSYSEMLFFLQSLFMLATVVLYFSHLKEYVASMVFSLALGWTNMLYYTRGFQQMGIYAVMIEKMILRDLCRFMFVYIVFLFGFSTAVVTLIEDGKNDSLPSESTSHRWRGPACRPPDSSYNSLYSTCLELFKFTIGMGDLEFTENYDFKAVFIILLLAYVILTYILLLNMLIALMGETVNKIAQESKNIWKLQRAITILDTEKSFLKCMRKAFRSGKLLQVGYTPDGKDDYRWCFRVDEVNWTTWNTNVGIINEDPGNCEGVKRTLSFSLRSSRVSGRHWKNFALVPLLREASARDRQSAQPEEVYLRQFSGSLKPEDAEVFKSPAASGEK
#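 Cells expressing TRPV1 were dye-loaded with Fluo-8 and read kinetically: 10 s baseline, 3 min after compound (agonist portion), then 2 min after EC20 capsaicin (allosteric enhancer portion). Calcium-bound dye fluorescence at 480/520 nm.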
# Sfp PPTase inh = inhibitors of Bacillus subtilis Sfp phosphopantetheinyl transferase; Biochemical Sfp PPTase activity, qHTS; Potency, µM, for the others: max response, negative = inhibition, hits mostly inhibitors; actives 3.5% (n = 310,000); active = well fitted inhibition curve with a large enough effect; inconclusive = small, poorly fitted or top-dose-only effect, or another doubt; inactive = no such curve, though single readings can be large or run the other way;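 note: the enzyme is Sfp with the accession as filed and its product quenches rhodamine fluorescence; potency is the fitted concentration of half-maximal effect; 0% = enzyme reaction without inhibitor and -100% = no enzyme wells; top concentration of the series not given in the record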
#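 Compounds were incubated with enzyme (final 15 nM) for 15 min at room temperature before substrate addition started the reaction. Fluorescence at 525 nm excitation, 598 nm emission was recorded immediately and after 30 minutes.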
# gsp ag = gsp mutant agonism | actives 0.13% (n = 340,000) | AID 624287 | gsp mutant cells, cAMP HTRF, 30 min; control for the full effect not named in the record | Potency, µM (highest dose often 76.9 µM), without a hit: at the highest dose activation (cAMP increase), hits mostly activators; active = well fitted activation curve with a large enough effect; inconclusive = small, poorly fitted or top-dose-only effect, or another doubt; inactive = no such curve, though single readings can be large or run the other way; cell line not stated here;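 note: phosphodiesterase inhibitor Ro 20-1724 added with compounds to block cAMP breakdown; potency is the fitted concentration of half-maximal effect; nearly all actives have a fitted effect of over 60% in size; about a fifth of the inactives were tested at one dose only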
#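 Cells stably selected in G418 were plated at 2000/well, grown 16-24 hr, then given compounds in DMSO with the PDE inhibitor […] (300 uM solution added) for 30 min at 37C; cAMP was read by HTRF.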
# Menin MLL FP FL = displaces fluorescein MLL peptide from human menin; Fluorescence polarization, fluorescein-MLL peptide displacement from menin; FP activity change, % at 61.4 µM; 290,000 tested, under 10 active; inconclusive = falling polarisation curve, or a change in total fluorescence; inactive = total fluorescence flat and polarisation flat or rising; no compound was filed as active; the % refers to the polarisation; negative = inhibition;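 note: % of control where 0% means no effect; inhibitors lower the polarisation; unlabelled MLL peptide was the positive control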
# The depositor's hits bear a star; ? = inconclusive; . = not tested or not shown; & = joins results of further samples; [ ] = remark or other dose.
SMILES,gsp antagonist,ClpP mod,CtBP-E1A blk,TRPV1 PAM,Sfp PPTase inh,gsp ag,Menin MLL FP FL
COc1ccc(/C=N/NC(=O)c2cccc([N+](=O)[O-])c2)cc1OS(=O)(=O)c1ccccc1,-15.6%,0.2%,5.8,-3.5,4.8%,3.1%,4.7
Cc1c(C#N)c2ccccc2n1CC(=O)N1CCCc2ccccc21,-13.7%,-2.3%,7.3,5.9,21.6%,-2.0%,2.9
O=S(=O)(C=C(c1ccccc1)c1ccccc1)c1ccccc1,-8.1%,-2.6%,9.5,7.3,-15.8%,17.4%,-0.6
COc1ccccc1N(CC(=O)NC1CCCCC1)C(=O)CCC(=O)Nc1nccs1,3.5%,-2.0%,25.7,-12.5,11.9%,-5.2%[15.4 µM],-0.5
CCOC(=O)C(C)Sc1cc(CS(=O)(=O)c2ccccc2)nc(-c2ccccc2)n1 (centres undefined),-3.3%,0.2%,3.3,7.1,2.1%,-52.3%[inhibitor],7.7
C#CCOCCOCCOCCNc1nc(N2CCN(C(=O)CCCCCCCCCCNC(=O)[C@H]([C@@H](C)CC)n3cc(CCCCN=C(N)N)nn3)CC2)nc(N2CCN(C(=O)CCCCCCCCCCNC(=O)[C@@H]([C@H](C)O)n3cc(C)nn3)CC2)n1,-18.7%,-3.5%,-3.5,21.9,.,.,.
Cc1ccc(C2=Nc3ccccc3N=C(c3ccc([N+](=O)[O-])cc3)C2)c(O)c1,6.8%,?,-18.1,-12.3,-20.5%,-17.0%,-4.2
O=C(NCc1ccc2c(c1)OCO2)C12CC3CC(CC(C3)C1)C2,-13.7%,3.9%,-0.6,4.9,4.8%,19.4%,2.6
CC(C)(C)N(Cc1ccccc1)C(=O)COC(=O)C1CC(=O)N(Cc2ccccc2)C1 (centres undefined),-9.3%,.,2.4,.,.,17.6%[15.4 µM],.
Cc1c(C(=O)N2CCCC2)sc(NC(=O)c2ccco2)c1C#N,-16.2%,-4.4%,-6.7,17.7,0.4%,8.1%,?
Cc1ccc(CC(CC(=O)Nc2cccc(C(F)(F)F)c2)C(=O)O)cc1 (centres undefined),-0.7%,1.1%,.,0.0,29.8%,-3.2%,1.3
C=CCNC(=O)NC(=O)COC(=O)c1cccnc1SC,5.7%,-21.1%,-10.1,0.4,-26.3%,16.6%,-0.7
Cc1c([N+](=O)[O-])cc(C(=O)Nc2ccc(NC(=O)c3ccco3)cc2)cc1[N+](=O)[O-],1.5%,.,6.9,0.9,10.9%,-10.8%,3.4
Cc1cc(=O)oc(C)c1C(=O)NCC(C)C,1.8%,1.3%,7.9,2.4,0.3%,-6.8%,-0.9
CCCn1c(SCC(=O)N2CCCCC2)nc2c1c(=O)n(C)c(=O)n2C,-2.2%,.,2.1,-5.7,1.8%,29.5%[15.4 µM],2.5
CCOCCCn1c(SCC(=O)N2CCOCC2)nc2ccccc2c1=O,0.2%,.,2.9,-21.3,21.2%,?,3.3
Cc1cc(Oc2ccccc2)nc(N2CCOCC2)n1,4.1%,?,9.7,-1.9,13.3%,-6.4%,-2.1
CC(=O)c1ccc(N2CCN(C(=O)Nc3cccc(F)c3)CC2)cc1,-13.3%,-14.4%&-12.3%,.,-7.4,17.6%,-18.6%,-3.1
O=C(COC(=O)c1ccccc1Cl)NC(=O)NCc1ccccc1,5.2%,1.4%,-15.7,-9.1,-12.7%,-0.7%,-3.6
O=C(O)c1ccc2cccc(Cl)c2c1O,11.5%,17.8µM*,9.2,2.5,-28.5%,21.1%,-3.8
CSCCC(NC(=O)c1ccccc1)C(=O)Nc1ccncc1 (centres undefined),-11.4%,-2.5%,-22.4,-2.9,.,-1.0%,.
CCN(CC)C(=O)Oc1ccc(Cl)c2ccccc12,-5.8%,0.0%,6.7,-2.6,-1.2%,0.1%,1.5
Cc1cc(NC(=O)NC(C)(C(F)(F)F)C(F)(F)F)no1,17.2%,0.8%,4.6,2.5,21.9%,10.5%[15.4 µM],1.0
Cc1ccc(C)c(-c2csc(N)c2C(=O)OC(C)C)c1,?,-3.0%,6.8,-6.1,16.9%,1.8%,1.0
N#CCCN(C(=O)COC(=O)c1cccc(S(=O)(=O)Nc2ccc([N+](=O)[O-])cc2)c1)c1ccccc1,-21.9%,-2.2%,-13.8,16.1,17.6%,9.1%,.
CCCCCCCN1C/C=C\C(c2ccc(OC)cc2)N(Cc2ccc(F)cc2)C(=O)[C@H]1Cc1ccccc1 (some centres undefined),6.9%,-3.2%,.,1.2,9.6%,-1.1%,2.7
CCOc1cc(CO)cc(Br)c1OCC(=O)Nc1ccccc1C,-4.9%,0.7%,2.4,-1.8,8.0%,-4.4%,-3.7
COc1ccc(CNC(=O)Nc2cc(C)cc(C)c2)cc1,0.7%,-0.2%,.,1.7,0.8%,1.4%,4.5
CC(C)c1ccc(OCC(=O)NC2=NCCS2)cc1,-3.2%,-2.4%,-11.7,-27.9,10.8%,-12.8%[15.4 µM],-1.1
CCN(CC)c1ccc(C=NN2CCCCCC2)cc1,7.9%,.,-6.9,.,.,10.5%,.
Cc1cc(Br)ccc1OCCOCCN1CCCC1,-2.0%,-0.9%,.,-5.6,-4.4%,-10.8%,-5.7
O=C(Nc1ccc(Br)cc1)c1cnccn1,4.5%,-10.9%,4.6,-14.1,-4.7%,-44.5%[inhibitor],2.4
CC1CC2C3CCC4=CC(=O)CCC4(C)C3CCC2(C)C1(O)C(=O)CO (centres undefined),-19.7%,.,19.8,.,.,-27.2%,.
COC(=O)c1csc2c(C(F)(F)F)cc(N3CCN(C(=O)Nc4ccccc4)CC3)nc12,2.6%,-10.0%,0.7,-19.8,12.6%,-20.0%,4.7
Cc1ccc(C(C)C)cc1OCC(=O)Nc1nnc(C2CC2)s1,7.1%,.,5.5,.,.,-31.3%,.
O=S(=O)(c1ccc(Br)cc1)c1nc(-c2ccccc2)oc1NCc1cccnc1,-11.8%,-23.2%,-8.3,-5.4,9.2%,-15.1%,3.3
O=C(NCC1CCCO1)NC1(C(F)(F)F)Oc2ccccc2O1 (centres undefined),13.3%,-4.4%,-8.7,-13.4,17.5%,21.3%,3.2
COC(=O)C1(O)CC(CC(C)C)=NN1C(=O)c1ccccc1 (centres undefined),11.7%,0.3%,4.8,7.3,-5.7%,-5.6%,0.3
CCc1noc(C)c1C(=O)N1CCN(c2ccc([N+](=O)[O-])cc2)CC1,.,0.4%,-4.6,.,.,-80.0%[inhibitor],.
CSc1ccc(CN(C)C(=O)c2cc(Cl)c3c(c2)OCCO3)cc1,9.4%,.,-1.5,-15.6,4.0%,18.5%[15.4 µM],-3.0
CCN1C(=O)N(C)[C@@H](c2ccccc2)C(C(C)=O)=C1C,11.3%,0.6%,4.0,.,-7.1%,3.0%,-0.1[11.7 µM]
Cc1ccc(-c2csc(NC(=O)C3=COCCO3)n2)cc1C,-19.9%,.,-7.4,-9.8,.,-2.1%[15.4 µM],.
COc1ccccc1CNS(=O)(=O)c1ccc2c(c1)CC(C)N2C(=O)C1CCC1 (centres undefined),-6.7%,0.2%&-1.8%,.,2.7,0.8%,-24.3%,-1.3
C[C@H](CO)N1C[C@H](C)[C@@H](CN(C)C(=O)c2ccccn2)Oc2cc(Br)ccc2S1(=O)=O,.,1.1%,-2.5,.,.,-44.8%[inhibitor],.
COc1ccc(NC(=O)COc2ccccc2Cc2ccccc2)cc1S(=O)(=O)N1CCOCC1,1.3%,-3.3%,3.9,10.8,.,-9.1%[15.4 µM],.
Cc1ccc(CNC(=O)CN2CCCC(C)C2)cc1 (centres undefined),-0.7%,1.3%,-1.1,11.5,1.9%,4.6%,2.0
CN(C(=O)CSc1nnc(Cc2cccs2)n1C1CC1)C1CCS(=O)(=O)C1 (centres undefined),12.1%,-3.9%,-16.9,2.9,.,-27.1%,.
c1ccc(N=C(c2cccs2)N2CCOCC2)cc1,1.0%,-1.3%,-1.4,-2.1,-9.1%,-37.2%[inhibitor],4.6
CCC(NC(=O)NNC(N)=S)(C(F)(F)F)C(F)(F)F,6.8%,-0.2%,0.0,1.8,44.7µM*,8.6%[15.4 µM],21.8
O=C(NCc1ccccc1)C1=C[C@@H](c2ccc3c(c2)OCO3)C[C@@H](OCCCCO)O1,-0.5%,-4.6%,2.0,.,.,.,.
COC(=O)c1[nH]c2ccccc2c1NC(=O)c1ccccc1F,0.4%,-6.3%,.,-6.6,20.6%,3.5%,0.0
Cc1cccc(/C=N/NC(=O)NC23CC4CC(CC(C4)C2)C3)n1,1.8%,.,3.5,-1.6,2.9%,?,-2.6
CCOc1ccc(N(CC(=O)NC2CCC(C)CC2)S(=O)(=O)c2c(C)noc2C)cc1 (centres undefined),-16.0%,0.0%,1.4,-2.5,14.5%,-5.9%,.
COc1cc(CN2CCN(Cc3ccc(SC)cc3)CC2)cc(OC)c1O,-1.0%,.,-7.4,-5.7,56.2µM*,?,0.3
Cc1[nH]nc(N)c1N=Nc1ccc(Br)cc1,.,.,.,3.0,0.4%,.,0.2
COc1cc(/C=N/NS(=O)(=O)c2ccc3ccccc3c2)ccc1OCc1ccc(C(=O)O)cc1,-26.7%,.,-2.1,.,8.9%,3.2%,1.0
O=C(Nc1ccccc1)c1[nH]ncc1[N+](=O)[O-],1.4%,1.0%,1.4,7.0,9.5%,-21.7%,4.1
Cc1ccc(S(=O)(=O)NCCc2c[nH]c3ccccc23)cc1,-3.0%,-2.0%,-6.0,0.4,22.8%,25.4%,0.6
COc1ccccc1CNC(=O)COC(=O)c1c(C)nn(-c2ccccc2)c1Cl,0.8%,-1.3%,0.4,-15.4,3.4%,?,.
O=C(COC(=O)c1cc(Br)ccc1Cl)NC(=O)NCc1ccccc1,-7.0%,.,1.7,-1.5,28.0%,-4.1%[15.4 µM],7.4
CC(=O)c1cccc(NC(=O)C(C)OC(=O)CCc2nc3ccccc3c(=O)[nH]2)c1 (centres undefined),-10.1%,1.1%,0.0,.,.,-21.8%[15.4 µM],.
CN1C(=O)N(C)C2(c3ccccc3)Nn3c(s/c(=C/c4ccccc4F)c3=O)=NC12c1ccccc1 (centres undefined),.,.,.,3.9,-1.8%,.,2.9
Cc1ccc(S(=O)(=O)N/N=C2/CC(=O)CC(C)(C)C2)cc1[N+](=O)[O-],-13.5%,.,1.8,-0.6,-13.7%,-18.4%[15.4 µM],0.4

# Not a hit list (roughly 5.3% active in at least one column).
